Screening results from PubChem BioAssay.
Ba CapD inh = inhibitors of Bacillus anthracis CapD enzyme; purified CapD enzyme, fluorescence intensity read-out; stronger effect = lower value; some hits fall short of the stated cut; z-score (concentration not given with the values); 0.23% of 140,000 active;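 active = z-score under -4 in either of two replicates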;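 also: stock transfer was 100 nL into about 40 µL; score is relative to mean and spread of the plate; one replicate is shown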
AID504770 = growth inhibitors of E. coli YBA685 in a screen for V. cholerae RctB (chromosome II replication) inhibitors; E. coli YBA685 rctB-dependent plasmid, OD600 growth, 3 h; stronger effect = lower value; z-score (test concentration not listed); 0.27% of 130,000 active; AID 504770;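 active = z-score under -2 on both plates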;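 also: wells of about 30 µL received 100 nL stock; score is relative to mean and SD of the test wells; the first replicate is given; strong numbers were not always called active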
The depositor's hits bear a star; i = inactive; x = not tested or not shown; & = joins results of further samples.

SMILES	Ba CapD inh	AID504770
O=C(O)CCc1nnc(SCc2ccc(Cl)cc2Cl)[nH]c1=O	x	-0.65
O=C(Nc1ccc(-c2cn3cccnc3n2)cc1)C1CCCC1	x	-1.55
CC1CCCC(C)N1CCCNC(=O)c1ccc(N2CCCC2=O)cc1 (stereo not given)	0.145	0.4
COc1ccc(-c2cc(C(F)(F)F)n3nc(C(=O)Nc4cc(C)on4)cc3n2)cc1OC	-1.65	x
CCSc1ccc2nnc(-c3ccc(C)cc3)n2n1	0.46	-0.55
O=C(Cc1ccc(S(=O)(=O)N2CCCCC2)s1)OCC(=O)c1ccccc1	x	0.25
CCN(CC)CCNc1nc(-c2ccccc2F)nc2ccccc12	0.19	x
CN(c1ccc(Br)cc1)S(=O)(=O)c1ccc2[nH]cc(C(=O)NCCCN3CCOCC3)c(=O)c2c1	2.35	x
CCc1cc(-c2[nH]ncc2-c2nc3ccccc3n2C)c(O)cc1O	i	-0.9
Cc1cc(C)nc(NCC(O)CNc2ccccc2Cl)n1 (stereo not given)	x	-0.6
O=C(Nc1ccccc1)c1nnc(-c2ccccc2)o1	1.49	-0.45
CC(=O)N1CCC(N(C(=O)c2ccc(C(F)(F)F)cc2)c2ccc3[nH]c(C(C)(C)C)cc3c2)CC1	0.275	x
c1ccc(CNc2c3c(nc4nncn24)CCC3)cc1	-1.09	-0.8
Nc1nnc(SCC(=O)NC(=O)C2COc3ccccc3O2)s1 (stereo not given)	x	1.85
CCCCCCCCc1ccc(-c2ccc(C(=O)OC3CC(C)CCC3C(C)C)cc2)cc1 (stereo not given)	-0.16	x

Overlap with the part before: five entries; new compounds follow.
SMILES	Ba CapD inh	AID504770
O=C(Nc1ccccc1)c1nnc(-c2ccccc2)o1	1.49	-0.45
CC(=O)N1CCC(N(C(=O)c2ccc(C(F)(F)F)cc2)c2ccc3[nH]c(C(C)(C)C)cc3c2)CC1	0.275	x
c1ccc(CNc2c3c(nc4nncn24)CCC3)cc1	-1.09	-0.8
Nc1nnc(SCC(=O)NC(=O)C2COc3ccccc3O2)s1 (stereo not given)	x	1.85
CCCCCCCCc1ccc(-c2ccc(C(=O)OC3CC(C)CCC3C(C)C)cc2)cc1 (stereo not given)	-0.16	x
CCOC(=O)c1nc2c([nH]1)C(c1ccncc1)C(C#N)=C(N)O2 (stereo not given)	0.085	-0.6
Cc1ccnc(NCc2ccc(Br)cc2)c1	1.74	0.25
CCOC(=O)C1=C(O)/C(=C/c2cc(OC)c(OC)c(OC)c2)SC1=Nc1ccc([N+](=O)[O-])cc1	-0.695	x
O=C(O)[C@H]1CCCC[C@H]1C(=O)N[C@H]1CCCC[C@@H]1NC(=O)[C@H]1CCCC[C@H]1C(=O)O	-0.275	-0.95
COc1ccc(C(=O)Oc2cccc3cccnc23)cc1OC	-0.05	-1.1
COc1ccccc1NC(=O)c1cc(-c2ccccc2)nc2ccccc12	-0.17	x
N#Cc1c2c(c(-c3ccco3)n3c1nc1ccccc13)CCCC2	x	1
O=C(CSc1cccc[n+]1[O-])c1ccccc1F	x	1.1
COc1ccc(C2CC(C(F)(F)F)n3nc(C(=O)NCc4cccc(Cl)c4)cc3N2)cc1 (stereo not given)	0.38	x
O=C(O)Cn1ncc(=O)c2ccccc21	x	0.15
COc1ccccc1OCCOc1ccc([N+](=O)[O-])cc1-c1nc2sc3c(c2c(=O)[nH]1)CCCC3	-0.285	x
O=C(c1ccncc1)N(Cc1ccccc1)Cc1ccccc1	-0.95	0.75
CC1COc2ccccc2N1S(=O)(=O)c1cc(Cl)ccc1Cl (stereo not given)	-0.74	x
CCC(Sc1nncn1C)C(=O)Nc1sc2c(c1C#N)CCCC2 (stereo not given)	-0.165	-0.95
CN1C(=O)c2ccc(-c3nc4ccccc4s3)cc2C1=O	1.96	2.65
CSc1ccc(S(=O)(=O)NCc2ccccc2)cc1	-0.54	-0.05
Cc1cc(C)c(C#N)c(OC(=O)c2c(Cl)cc(Cl)cc2Cl)n1	-0.035	x
CCOC(=O)CSc1nc2cc(C(=O)Nc3ccc(OC)c(OC)c3)ccc2c(=O)n1Cc1ccccc1	-0.075	x
FC(F)(F)c1cc(Oc2ccccc2Cl)nc(-c2ccccn2)n1	-0.005	x
CC(C)(C)c1cc(C(C)(C)C)c(Br)c(C(C)(C)C)c1	-0.795	x
Cc1[nH]nc(-c2ccc(O)c(C)c2O)c1Oc1ccccc1	x	0.2
O=C1OC/C(=C(\O)c2ccc(Cl)cc2)C1=O	-5.44*	-0.8
CC1(C)OC(=O)N(CC(=O)O)C1(C)O (stereo not given)	7.49&-0.17	x
COc1ccc(-c2nnc(SCC(=O)N[C@H](c3nc4ccccc4[nH]3)C(C)C)o2)cc1	x	-0.3
COC(CNC(=O)c1cccnc1SCC(=O)NCCc1ccccc1)OC	0.53	x
Cc1ccc(-c2cc(N)n[nH]2)cc1	7.24	-0.15
CN(CCO)S(=O)(=O)c1ccc2c(c1)C(=NO)c1cc(S(=O)(=O)N(C)CCO)ccc1-2	-1.2	-0.45
CC1(C)CC(=O)c2cc(OCC(=O)NCCCN3CCN(c4ccccc4F)CC3)ccc2O1	4.78	1.5
O=c1oc2c(ccc3ccccc32)c2c1SC(C(F)(F)F)C2 (stereo not given)	22.5	-0.05
CCc1ccccc1NC(=O)C1CC2C=CC1C2 (stereo not given)	x	0.2
CC(=O)N1CCN(C(=O)Cc2csc3nc(-c4ccc(Cl)cc4)cn23)CC1	0.335	0.9
Cc1c(Cl)cccc1N=Cc1nc(-c2ccccc2)oc1O	i	-0.55
Cc1nc2sc(C(c3ccccc3)N3CCC(C)CC3)c(O)n2n1 (stereo not given)	0.205	-0.3
O=C(CCCC(=O)Nc1ccc(F)cc1F)Nc1ccc(F)cc1F	-0.495	-0.3
CCOc1ccc2c(O)csc2c1	x	-0.75
O=C(CSCc1ccccc1Cl)NCc1cccs1	x	-0.2
CC(Oc1ccc(Cl)cc1Cl)C(=O)Nc1ccc(Cl)cc1Cl (stereo not given)	0.135	x
CC(C)c1ccccc1NC(=O)COC(=O)Cc1ccccc1F	-0.09	-1.15
Cc1ccc(CN2CC(C(=O)N3CCOCC3)CC2=O)cc1 (stereo not given)	x	-0.7
Cc1ccc(SCC(=O)NCCN2C(=O)CSC2=O)c(C)c1	x	-0.1
CCOC(=O)C1CCN(C(=O)COC(=O)c2ccc(C#N)cc2)CC1	x	-1.15
COc1cccc(/C(O)=C/c2nc3ccc(C(=O)N4CCN(c5ccccn5)CC4)cc3[nH]c2=O)c1	-0.305	-0.25
O=C(CSCc1ccccc1)N1CCN(c2ncccn2)CC1	x	1.2
Cc1c(C(=O)CSc2ncccc2C(=O)O)sc2ccccc12	-0.27	0.25
CSc1nc(N)nc(SCCS(=O)(=O)c2ccc(C)cc2)c1C#N	-0.23	x

Part of the list above, in CSV form:
Compound,Ba CapD inh,AID504770
Cc1nc2sc(C(c3ccccc3)N3CCC(C)CC3)c(O)n2n1 (stereo not given),0.205,-0.3
Cc1ccc(CN2CC(C(=O)N3CCOCC3)CC2=O)cc1 (stereo not given),x,-0.7
CC(=O)N1CCN(C(=O)Cc2csc3nc(-c4ccc(Cl)cc4)cn23)CC1,0.335,0.9

(listing goes on)
SMILES	Ba CapD inh	AID504770
CCCC(=O)Nc1ccc(NC(=O)c2ccc3c(c2)OCO3)cc1	x	3.1
CCOC(Cn1c(SCC(=O)NCCc2ccc(S(N)(=O)=O)cc2)nc2ccccc2c1=O)OCC	-0.04	0.1
CCOC(=O)c1c(NC(=O)c2cccs2)sc(C(=O)Nc2ccccc2C(F)(F)F)c1C	-0.065	x
CC(C)NC(=O)c1ccccc1NC(=O)CCS(=O)(=O)Cc1ccccc1	-0.03	-0.7
Cc1ccc(CSc2nc3cc(C(=O)N4CCC(C(N)=O)CC4)ccc3c(=O)n2-c2ccccc2)cc1	0.19	x
COC(=O)c1ccccc1NC(=S)NNC(=O)c1ccc([N+](=O)[O-])cc1	-0.41	x
Cc1ccc(C(=O)OCC2OC(O)C(O)C2OC(=O)c2ccc(C)cc2)cc1 (stereo not given)	-0.265	-0.2
O=C(/C=C/c1ccco1)NC(=S)Nc1ccccc1C(F)(F)F	-2.12	0.75
COc1cc(/C=C2/N=C(c3ccc(-c4ccccc4)cc3)OC2=O)ccc1OC(C)=O	1.45	x
CCOc1ccc(C(CC(=O)O)NC(=O)c2c(-c3ccccc3)noc2C)cc1 (stereo not given)	-0.535	1.05
O=S(=O)(Nc1nnc(C2CC2)s1)c1ccccc1	0.755	1.1
CCOc1cccc(/C=N/NC(=O)c2cccc(S(=O)(=O)N(CC)CC)c2)c1O	x	0.25
Cc1cccc(N2CCN(C(=O)c3cccc(N4C(=O)C5C6C=CC(C6)C5C4=O)c3)CC2)c1C (stereo not given)	-0.42	x
CN(Cc1nc2ccccc2c(=O)[nH]1)Cc1nc2sc3c(c2c(=O)[nH]1)CCCC3	x	-0.35
CC(=O)Nc1ccc(C2Nc3ccccc3C(c3ccccc3)(c3ccccc3)O2)cc1 (stereo not given)	0.26	x

As entered above:
Ba CapD inh result of `CC(C)(C)c1cc(C(C)(C)C)c(Br)c(C(C)(C)C)c1` → -0.795
AID504770 result of `CCC(Sc1nncn1C)C(=O)Nc1sc2c(c1C#N)CCCC2` (stereo not given) → -0.95
Ba CapD inh result of `c1ccc(CNc2c3c(nc4nncn24)CCC3)cc1` → -1.09
Ba CapD inh result of `Cc1cccc(N2CCN(C(=O)c3cccc(N4C(=O)C5C6C=CC(C6)C5C4=O)c3)CC2)c1C` (stereo not given) → -0.42
AID504770 result of `CN(CCO)S(=O)(=O)c1ccc2c(c1)C(=NO)c1cc(S(=O)(=O)N(C)CCO)ccc1-2` → -0.45
Ba CapD inh result of `CC(C)NC(=O)c1ccccc1NC(=O)CCS(=O)(=O)Cc1ccccc1` → -0.03

Later entries
SMILES	Ba CapD inh	AID504770
CCc1ccccc1NC(=O)Cc1noc2ccccc12	0.28	1.1
CCOc1ccccc1NC(=O)CNC(C)c1ccccc1OC (stereo not given)	x	0.65
Cc1c(C#N)c2nc3ccccc3n2c(=O)/c1=C/Nc1ccc(Nc2ccccc2)cc1	-0.085	x
Fc1ccccc1Nc1ncnc2c1nnn2Cc1ccccc1	-0.5	0.25
O=C(O)CCn1ccc2cc(S(=O)(=O)N3CCCC3)ccc21	0.68	0.3
CCOC(=O)c1cc(Cl)c(O)c(Cl)c1	x	-0.1
CC(C)CC(Cl)COC(=O)c1ccc(-c2ccc(C(=O)OCC(Cl)CC(C)C)cc2)cc1 (stereo not given)	0.55	x
CC(=O)n1c2ccccc2c2c1c1ccccc1n2C	0.7	-0.25
N#Cc1c(C(F)(F)F)cc(-c2cccs2)nc1SCc1nc2c(oc3ccccc32)c(=O)[nH]1	x	0.45
CCOC(=O)c1c(C)sc2c(C)c(C)[nH]c12	25.9	-0.75
Cc1cccc(C)c1N1CCN(c2nc(N(C)C)oc(=O)c2C#N)CC1	0.135	x
Cc1ccc2c(c1)c1c(n2CCc2ccncc2)CCN(C)C1	0.35	0.15
CCCN(CCC)C(=O)C(C)Sc1nc2ccccc2c(=O)n1C (stereo not given)	x	-0.2
Cc1cc(N2CCCC2)nc2ccccc12	34	0.35
CCc1nc2sc3c(SCC(N)=O)ncnc3c2c2c1CCCC2	-0.495	-0.15
O=C(NCCN1CCOCC1)c1cn2ccccc2n1	3.46	0.2
O=C1NCCSC1c1ccccc1 (stereo not given)	0.015	x
Cc1ccccc1CCOC(=O)NNC(=O)c1ccccc1O	6.33	x
O=c1[nH]c2ccc(S(=O)(=O)N3CCCC3)cc2[nH]1	-0.075	1
CCC1CCCCN1C1Sc2ccc(C(=O)OC)cc2NC1=O (stereo not given)	0.015	-0.95
OCC12CC3CCC(CC(C3)C1)C2	0.645	0.65
Cc1cc(=O)[nH]c(Nc2ccc(O)cc2)n1	-0.295	0.55
O=C(N/N=C/c1ccc(Cl)cc1)c1sccc1OCc1ccc(F)cc1	-1.32	x
CCOC(=O)CSc1nc2cc(Cl)ccc2s1	0.085	x
N#CCCN1N=C(c2ccccc2)/C(=C\c2cn(CCC#N)nc2-c2ccccc2)C1=O	x	-1.3
CCOC(=O)C1C(=O)NC2(C)CC1c1cc(OC)ccc1O2 (stereo not given)	-0.03	x
N#C/C(=C\c1cccs1)S(=O)(=O)c1cccs1	-0.51	1
CCOC(=O)c1cnc2c(F)ccc(F)c2c1Oc1cncc(Cl)c1	8.68	-0.1
CCCc1nc2ccccc2n1CC(=O)N1CCc2ccccc2C1	1.08	0.2
Cc1ccccc1C1C(/C=c2/sc3nc4ccccc4n3c2=O)=C(c2ccccc2)Oc2ccccc21 (stereo not given)	0.095	x
O=[N+]([O-])c1cccc(C2CC(c3ccc(Br)cc3)=NN2S(=O)(=O)c2ccccc2)c1 (stereo not given)	-0.615	x
O=C1c2ccccc2C(=O)N1CCCOc1ccccc1	0.675	-0.3
COCCOc1ccc(C(F)(F)F)cc1NC(=O)CSc1nnc(-c2ccc(F)cc2)o1	x	-0.45
COc1ccc2c(c1)c(CC(=O)NCc1ccoc1)c(C)n2C(=O)c1ccc(Cl)cc1	-0.27	x
Cc1[nH]ncc1S(=O)(=O)c1ccc(Cl)cc1	-0.05	-0.95
CCOC(=O)c1cc2occc2n1CC(=O)N1CCCCC1C (stereo not given)	x	-0.95
CC1CC(C)CN(C(=O)CS(=O)(=O)c2ccccc2)C1 (stereo not given)	0.31	-1.05
CCOc1ccc(C2=NN3C(C2)c2cc(Cl)ccc2OC3c2cc(OC)ccc2OC)cc1 (stereo not given)	0.45	x
CCSc1nc2c([nH]1)c(=N)ncn2Cc1ccccc1	-0.825	1.8
Cc1ccc(/C(O)=C2/C(=O)C(=O)N(CC3CCCO3)C23C(=O)N(C)c2ccccc23)cc1 (stereo not given)	-1.45	-0.45
CCOC(=O)C1=C(C)N=c2s/c(=C/c3cc(OC)c(OC)cc3OC)c(=O)n2C1c1ccc(N(C)C)cc1 (stereo not given)	-0.08	x
Cc1cccc(N2CCN(CCCNc3ncnc4onc(C)c34)CC2C)c1 (stereo not given)	0.545	-1
O=C(Nc1ccccc1C(=O)OCc1nc2sc3c(c2c(=O)[nH]1)CCCC3)c1ccco1	x	1.15
